CBX7 inh: CBX7 chromodomain binding inhibitors, primary screen, biochemical, AlphaScreen. Chromobox protein homolog 7 (Homo sapiens), O95931. AlphaScreen His6-CBX7 / biotin-H3K27me3 peptide binding; stronger effect = lower value. normalised signal (fraction of DMSO) (test concentration not listed). 1.1% of 66,000 active; in the data active = normalised signal below about 0.5;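 note: 100 nL library stock added to about 20 µL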
Target sequence (O95931 whole entry, looked up): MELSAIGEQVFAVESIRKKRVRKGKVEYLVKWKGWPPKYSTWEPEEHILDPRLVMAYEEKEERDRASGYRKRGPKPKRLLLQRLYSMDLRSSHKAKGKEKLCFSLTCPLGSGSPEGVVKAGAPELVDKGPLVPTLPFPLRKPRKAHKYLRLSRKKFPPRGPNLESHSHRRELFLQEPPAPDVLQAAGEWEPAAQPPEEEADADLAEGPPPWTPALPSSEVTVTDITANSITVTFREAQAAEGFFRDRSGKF
CBX7 inh z-score: also measured in CBX7 inh; calls as there; z-score; measured here: z-score of CBX7 signal; some inactives read as strong as hits; reference of the scale not given here;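 same signal on another scale; lower means less binding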
Numbers without * were called inactive; & = joins results of further samples. This is a subset, so the mix of outcomes need not match the whole.

Each structure is followed by: CBX7 inh, CBX7 inh z-score
- O=C(CC1Oc2ccccc2NC1=O)NCCc1ccc(Cl)cc1 (stereo not given)
    0.97, -0.53
- Cc1cccc(-c2nc3cc(NC(=O)c4cccc(F)c4)ccc3o2)c1
    1, 1.6
- Cc1c(C(=O)NC2CCCC2)oc2ccc(S(=O)(=O)N3CCCCCC3)cc12
    0.93, -1.2
- CCc1ccc(-n2c(C)nc3cc(C(=O)NC4CCCCCC4)ccc32)cc1
    0.98, -0.36
- CC(NC(=O)C1CCN(C(=O)c2cc3sccc3n2Cc2ccc(F)cc2)CC1)c1ccccc1 (stereo not given)
    1, 0.57
- Brc1cccc(CN2CCN(Cc3cccnc3)CC2)c1
    1, 0.54
- CC1CCN(Cc2c(O)ccc3cc(-c4nc5ccccc5s4)c(=O)oc23)CC1
    1.4, 9.8
- Cn1c(C(=O)NCc2ccccc2)cc2sc(Cl)cc21
    0.95, -1.8
- Cc1cccc(C)c1NC(=O)C1(S(=O)(=O)c2ccc(Cl)cc2)CC1
    1.1, 1.4
- COc1ccccc1CNS(=O)(=O)c1ccc2c(c1)CCC(=O)N2
    1, 1.2

Each structure is followed by: CBX7 inh, CBX7 inh z-score
- Cc1cc(Cl)ccc1OC1C(=O)N(c2cccc(Cl)c2)C1c1ccc2c(c1)OCO2 (stereo not given)
    1.1, 0.8
- O=C1CC(c2ccccc2)c2cc3c(cc2N1)OCO3 (stereo not given)
    0.98, -0.74
- OCCN(CC#CCC(O)(c1ccccc1)C1CCCC1)Cc1ccccc1 (stereo not given)
    0.85, -2.2
- Cc1cc(Nc2ccc(Br)cc2F)n2ncnc2n1
    0.98, -0.47
- CC(C)c1ccc(NS(=O)(=O)c2ccc3c(c2)CCN3C(=O)C2CC2)cc1
    0.92, -0.96
- CC1(C)CC(=O)c2cc(C(=O)Nc3cccc(C(F)(F)F)c3)c(=O)n(-c3ccc(Cl)cc3)c2C1
    1.1, 1.3
- CCCCN(C)C(=O)c1c[nH]c2ccc(S(=O)(=O)Nc3cccc(OC)c3)cc2c1=O
    0.5, -3.3
- COc1ccc(-c2nc3ccccc3o2)cc1NC(=O)c1cc2ccccc2o1
    0.98, -0.26
- Cc1ccc(-n2nc3c(c2NC(=O)COc2ccc(Cl)cc2)CSC3)cc1
    1.1, 0.061
- O=C(C1CCC(Cn2c(=O)[nH]c3ccccc3c2=O)CC1)N1CCN(c2ccccc2)CC1 (stereo not given)
    0.94, -1.1

Each structure is followed by: CBX7 inh, CBX7 inh z-score
- Cc1cccc(-c2nc(NCCCN3CCOCC3)c3ccccc3n2)c1
    1.1, 0.8
- COc1ccc(CCNC(=O)c2ccc3c(c2)ncn3C2CCCC2)cc1OC
    0.88, -1.4
- Cc1ccc(S(=O)(=O)Nc2ccc(Br)cc2CNc2nc3ccccc3n2C)cc1
    0.94, -0.81
- Cc1csc2ncc(C(=O)Nc3ccc4c(c3)OCO4)c(=O)n12
    0.92, -2.1
- CCOc1ccc(S(=O)(=O)NC2CCCCC2)cc1-c1nc2c(C(C)(C)C)nn(C)c2c(=O)[nH]1
    0.82, -2.5
- OC(COc1ccc(F)cc1)Cn1nnc2ccccc21 (stereo not given)
    1, 0.13
- CCOC(=O)c1cnc2ccc(OC)cc2c1NCCN(C)C
    0.96, -0.55
- Cc1ccc(-c2nc(Nc3ccccc3F)c3ccccc3n2)cc1
    1.1, 5.5
- O=C(NCc1ccc2c(c1)OCO2)C1CC(=O)N(c2ccc(OCc3ccccc3Cl)cc2)C1 (stereo not given)
    0.91, -1.7
- O=C(C1CCN(c2nc3ccccc3[nH]2)CC1)N1CCCCC1
    0.8, -2.3

As a working copy, part of the list above.
Each structure is followed by: CBX7 inh, CBX7 inh z-score
- O=C(NCc1ccc2c(c1)OCO2)C1CC(=O)N(c2ccc(OCc3ccccc3Cl)cc2)C1 (stereo not given)
    0.91, -1.7
- O=C(C1CCN(c2nc3ccccc3[nH]2)CC1)N1CCCCC1
    0.8, -2.3

Continuation.
Each structure is followed by: CBX7 inh, CBX7 inh z-score
- CC(=O)Nc1cc(-c2nn(C)c(=O)c3ccccc23)ccc1N1CCOCC1
    1.1, 1.7
- Cc1ccccc1NC(=O)c1c(C)nc(Nc2nc3ccccc3s2)nc1C
    1, 0.17
- Cc1ccc(-c2n[nH]c(=O)c3ccccc23)cc1S(=O)(=O)N1CCN(CCO)CC1
    1.2, 1.5
- COCCNC(=O)c1ccc2c(c1)nc(C)n2-c1ccc(OC)cc1
    0.97, -0.73
- Cc1nnc(NC(=O)CSc2nnc(-c3cccnc3)n2Cc2ccccc2)s1
    1, 0.65
- CCOC(=O)c1cnc2c(C(F)(F)F)cccc2c1NCCCO
    1, 1.2
- COc1ccc(CC(=O)Nc2c3c(nn2-c2cccc(C)c2)CSC3)cc1
    0.95, -0.91
- Cc1ccc(Nc2nc(-c3ccc(S(=O)(=O)N4CCCC4)cc3)cs2)cc1
    0.98&0.89, -0.49&-1.4
- Cc1nc2c(C(=O)O)c[nH]n2c(=O)c1Cc1ccc(Cl)cc1
    1.3, 0.38
- COc1cc(OC)c(NC(=O)CNC(=O)Cn2cnc3sc4c(c3c2=O)CCCC4)cc1Cl
    1, 0.58

Some values from the results shown:
Cc1ccc(Nc2nc(-c3ccc(S(=O)(=O)N4CCCC4)cc3)cs2)cc1 | CBX7 inh z-score = -0.49&-1.4
COCCNC(=O)c1ccc2c(c1)nc(C)n2-c1ccc(OC)cc1 | CBX7 inh z-score = -0.73
Cc1ccccc1NC(=O)c1c(C)nc(Nc2nc3ccccc3s2)nc1C | CBX7 inh z-score = 0.17
Cc1nnc(NC(=O)CSc2nnc(-c3cccnc3)n2Cc2ccccc2)s1 | CBX7 inh = 1

(list continues)
Each structure is followed by: CBX7 inh, CBX7 inh z-score
- O=C(c1ccccc1Br)N1CCc2c([nH]c3ccccc23)C1
    0.95, -1.7
- COc1ccccc1Nc1nc(-c2cc3cc(Br)ccc3oc2=O)cs1
    1, 0.49
- C=CCc1c(C)nc(-c2ccccc2)[nH]c1=O
    1.1, 1.8
- Cc1ccc2nc(-c3ccccc3)c(Nc3ccccc3C)n2c1
    1.1, 1.3
- Cc1nn(C)c(C)c1S(=O)(=O)N(CC(=O)Nc1ccc2c(c1)OCO2)c1ccc(C(C)C)cc1
    0.96, -0.86
- Clc1ccc(Cn2c(CN3CCCC3)nc3ccccc32)cc1
    1, 0.046
- Cc1ccc(C)c2[nH]c(=O)c(CCNC(=O)c3ccccc3Cl)cc12
    0.99, -0.35
- CCC(C)NC(=O)c1cnn2c(C)c(Cc3cccc(Br)c3)c(C)nc12 (stereo not given)
    0.98, -0.6
- CCc1ccc(NC(=O)CN2C(=O)CC(c3ccc(OC)cc3)Sc3ccccc32)cc1 (stereo not given)
    0.9, -1.6
- O=C(CCN1N=C(c2ccccc2)CCC1=O)NCCc1ccc(Cl)cc1
    0.98, -0.37

Each structure is followed by: CBX7 inh, CBX7 inh z-score
- COc1ccc2nc(SCC(=O)Nc3ccc(Br)cc3)[nH]c2c1
    0.85, -1
- Cc1ccc(CN2C(=O)c3ccccc3C2C(=O)NC2CCCC(C)C2C)cc1 (stereo not given)
    0.94, -0.64
- CC1CCc2c(C(=O)NCCCN3C(C)CCCC3C)csc2C1 (stereo not given)
    1, 1.3
- COc1ccc(Nc2nnc(-c3ccc(C)c(S(=O)(=O)NC(C)C)c3)c3ccccc23)cc1C(N)=O
    0.86, -0.16
- COc1ccc(CNC(=O)CCc2c(C)nc3nc(C)nn3c2C)cc1
    1.1, 2.3
- Cc1ccc(C(=O)NCCc2ccc(S(N)(=O)=O)cc2)cc1C
    1.1, 2.2
- COc1cccc(-c2nc(CS(=O)(=O)CC(=O)N3CCCCCC3)c(C)o2)c1
    1.1, 1.2
- COc1ccc(-c2cc(C(=O)Nc3ccc(F)c(Cl)c3)no2)cc1
    1, 0.68
- Cc1onc(-c2ccccc2Cl)c1C(=O)Nc1c2c(nn1-c1ccc(Cl)cc1)CSC2
    1, 1.2
- COc1cccc(C(=O)Nc2ccc(-c3nc4ccccc4o3)c(O)c2)c1
    0.94, -0.99

Each structure is followed by: CBX7 inh, CBX7 inh z-score
- Cc1cc(C)cc(-n2ccnc2SCC(=O)Nc2cccc(F)c2)c1
    0.88, -2.1
- COc1ccc(NC(=O)CSc2ccc3nnc(-c4ccccc4)n3n2)cc1
    0.99, -0.15
- COc1ccc(-n2cc(-c3ccccc3)nc2SCC(=O)Nc2ccc(Cl)cc2)cc1
    1, 0.67
- CCCN(CCC)S(=O)(=O)c1ccc2c(c1)N(CC(=O)N1CC(C)CC(C)C1)C(=O)CS2 (stereo not given)
    1, 1.5
- O=C(NC1(C(=O)Nc2cccc(Cl)c2)CCCCC1)c1ccccc1F
    1, 0.36
- O=C(Nc1ccccc1-c1nc2ccccc2[nH]1)c1cccc([N+](=O)[O-])c1
    1.1, 1.4
- COc1cccc(-n2c(Cc3cc(=O)[nH]c(=O)[nH]3)nnc2SCc2cccc(C)c2)c1
    0.91, -1.5
- COc1ccc(S(=O)(=O)CCc2nnc(NC(=O)c3ccc(Br)cc3)s2)cc1
    1, 0.047
- O=C1NC(c2ccccc2Cl)c2c(-c3ccccc3)n[nH]c21 (stereo not given)
    0.96, -1.5
- COc1ccccc1-n1c(/C=C/c2cn(C)c3ccccc23)nc2ccccc2c1=O
    0.85, -3.7

Each structure is followed by: CBX7 inh, CBX7 inh z-score
- Cc1ccsc1-c1nc(CSCC(=O)NC2CC2)c(C)o1
    1, -0.02
- COC(=O)c1c[nH]n2c(NC3CCCC3)c(-c3cccc(C)c3)nc12
    0.67, -0.37
- CCC(C)NC(=O)CN1C(=O)C(CC)Oc2ccc(C)cc21 (stereo not given)
    1.3, 4.2
- Cc1oc(-c2cccc(Cl)c2)nc1CN1CCC(C(=O)NC2CCCCCC2)CC1
    1, 0.025
- O=C(Nc1ccc2c(c1)OCCO2)c1cnc2sccn2c1=O
    0.85, -1.8
- CCN(CC)CC(O)Cn1c2ccccc2c2ccccc21 (stereo not given)
    1.1, 1.7
- COc1ccc(Cl)cc1NC(=O)CCNS(=O)(=O)c1ccc2c(c1)CCN2C(C)=O
    0.98, -0.86
- Cc1ccc(NC(=O)CN(c2ccc(C(C)C)cc2)S(=O)(=O)c2c(C)nn(C)c2C)c(Cl)c1
    1, 0.77
- CCCOc1ccc(N2C(=O)CC(Nc3ccc(OC(F)(F)F)cc3)C2=O)cc1 (stereo not given)
    1.1, 3.5
- Cc1ccc(C)c(-c2csc(Nc3ccc(Cl)cc3)n2)c1
    0.99&1.1, -0.18&1.3

Each structure is followed by: CBX7 inh, CBX7 inh z-score
- CCOCCCNC(=O)C1CCN(Cc2nc(-c3cccc(Br)c3)oc2C)CC1
    0.87, -0.18
- CCn1cc(C(=O)NC2CCCCC2)c(=O)c2ccc(C)nc21
    1.1, 0.71
- Cc1ccc(Nc2c(-c3ccc(Cl)cc3)nc3ccc(C)cn23)cc1
    1.1, 2.1
- COc1ccc(C(=O)C(C)Sc2nc3ccccc3[nH]2)cc1 (stereo not given)
    0.99, -0.029
- CCOc1ccc(-c2cc(C(=O)O)c3cccc(C)c3n2)c(OCC)c1
    0.99, -0.24
- CCOc1ccc2c(c1)c(=O)c(S(=O)(=O)c1ccccc1)cn2Cc1ccc(Cl)cc1
    0.89, -2
- Cc1ccc(NC(=O)Cn2cnc3sc(C(=O)NCc4ccc(F)cc4)c(C)c3c2=O)cc1Cl
    1.1, 0.92
- Cc1nc2cc(-c3ccc(Cl)cc3)nn2c(C)c1CCC(=O)N1CCOCC1
    1, 0.72
- Cc1ccccc1OCc1nc(Cc2ccc(Cl)cc2)no1
    1.4, 14
- O=C(Nc1ccc(Cl)cc1)C1CCCN(S(=O)(=O)c2cccnc2)C1 (stereo not given)
    1, 0.047

Grouped by structure: those above containing a furan ring, fused or not
Each structure is followed by: CBX7 inh, CBX7 inh z-score
- Cc1c(C(=O)NC2CCCC2)oc2ccc(S(=O)(=O)N3CCCCCC3)cc12
    0.93, -1.2
- COc1ccc(-c2nc3ccccc3o2)cc1NC(=O)c1cc2ccccc2o1
    0.98, -0.26

New compounds follow:
Each structure is followed by: CBX7 inh, CBX7 inh z-score
- O=C(NC(c1ccccc1)c1ccccc1)C1CCCN(S(=O)(=O)c2cnc[nH]2)C1 (stereo not given)
    1.1, 2.3
- COc1ccc(-c2[nH]c(-c3ccc4c(c3)OCO4)nc2-c2ccccc2)cc1
    0.76, -4.1
- CCC1(C)Cc2nc3nc(SCc4ccccc4)n(-c4ccccc4)c(=O)c3cc2CO1 (stereo not given)
    1.1, 0.15
- CCOc1ccc2nc(N3CCCC(C(=O)Nc4ccsc4C(=O)OC)C3)sc2c1 (stereo not given)
    1.1, 2
- COc1ccc(C)cc1NC(=O)C1CCN(S(=O)(=O)c2cnc[nH]2)CC1
    0.87, -0.28
- Cc1ccc(CNC(=O)C2CCC(=O)N2C2CCCC2)cc1 (stereo not given)
    1, 0.92
- Cc1cc(Nc2ccc(Cl)cc2)nc(-c2ccccc2O)n1
    1, -0.021
- COc1ccccc1N1CCN(C(=O)CCCn2c(=O)[nH]c3ccsc3c2=O)CC1
    1.1, 0.38
- COc1cc2c(C(=O)Nc3ccc4c(c3)OCCO4)cn(C)c(=O)c2cc1OC
    1, 0.017
- CCOc1ccc2nc(N3CCCC(C(=O)NCCCN4CCN(C)CC4)C3)sc2c1 (stereo not given)
    0.44*, -11*

Each structure is followed by: CBX7 inh, CBX7 inh z-score
- CCC1=Nc2cc(C(=O)N3CCC(C)CC3)ccc2Sc2ccccc21
    0.85, -0.35
- Cc1ccc(-c2csc(NC(=O)COc3cc(C)cc(C)c3)n2)cc1
    1.1, 0.87
- OC(COc1cccc(Cl)c1)Cn1nnc2ccccc21 (stereo not given)
    1.1, 2.5
- COc1cc(C(=O)CCN2CCC(c3ccccc3)C2)cc(OC)c1OC (stereo not given)
    0.99, -0.25
- CC1(C)Cc2nc(NCCN3CCOCC3)c(C#N)cc2CO1
    1, 0.44
- COc1ccc(C2c3[nH]c4ccccc4c3CCN2C(=O)c2cccc(C)c2)cc1 (stereo not given)
    0.74, -5.8
- CCC(=O)N1CCc2cc(S(=O)(=O)NCCCN3CCC(C)CC3)ccc21
    1.1, 1.1
- Cc1c(NC(=O)Cc2ccc(Cl)cc2)cccc1-c1nc2ncccc2o1
    1, 0.29
- COc1ccc(S(=O)(=O)NC2CC2)c2cccnc12
    1, 0.21
- O=S(=O)(Nc1cccc2cccnc12)c1ccccc1O
    0*, -21*

High-throughput results deposited in PubChem by several laboratories.
